# Compound activity (PubChem)
# rRNA inh HTS = selective bacterial rRNA inhibition in E. coli; E. coli WT GFP vs humanized-ribosome RFP mutants, fluorescence, 24 h; hits give low values; DMSO median 0, no signal -100; GFP signal change (wild-type ribosome), % (test concentration not listed); AID 720706; 350,000 tested, 1.6% active;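 active = significant combined selectivity score with lowered wild-type GFP, culture density cut under 30%, mutant RFP and density less affected; inactive = any of these conditions unmet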; also: one replicate is shown; some compounds called inactive have numbers as strong as hits
# AF4-AF9 inh = blocks AF4 peptide binding to human AF9. inhibition, % at 10 µM. AlphaScreen, biotin-AF4 peptide binding to FLAG-AF9. 350,000 tested, 0.47% active. AID 651704;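 active = every replicate reaching a set inhibition limit, whatever the replicate mean, cut at about 25% in these data; inconclusive = mean inhibition reaches that limit but some replicates miss it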;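 also: 0% = plate neutral control median and 100% = total signal loss; the record names both 10 and 1 µM as test concentration; the first replicate is given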
# Target sequence (P42568 whole entry, looked up): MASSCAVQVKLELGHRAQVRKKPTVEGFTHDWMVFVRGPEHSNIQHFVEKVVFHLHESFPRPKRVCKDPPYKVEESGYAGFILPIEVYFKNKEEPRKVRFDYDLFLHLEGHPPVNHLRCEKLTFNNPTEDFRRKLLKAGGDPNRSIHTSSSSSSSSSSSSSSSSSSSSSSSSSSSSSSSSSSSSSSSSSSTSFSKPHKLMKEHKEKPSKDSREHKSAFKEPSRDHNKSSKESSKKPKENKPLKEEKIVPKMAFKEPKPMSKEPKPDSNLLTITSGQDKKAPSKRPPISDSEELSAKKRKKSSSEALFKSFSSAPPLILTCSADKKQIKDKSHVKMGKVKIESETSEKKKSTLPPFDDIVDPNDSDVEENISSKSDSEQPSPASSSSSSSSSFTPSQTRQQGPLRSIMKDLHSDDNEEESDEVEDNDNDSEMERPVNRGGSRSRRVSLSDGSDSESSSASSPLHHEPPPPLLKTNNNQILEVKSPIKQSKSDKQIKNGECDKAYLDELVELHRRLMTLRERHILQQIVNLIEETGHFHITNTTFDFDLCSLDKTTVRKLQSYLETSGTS
# RanGTP-Impb inh = disruptors of Ran-importin-beta complex formation – biochemical, FRET, CFP-Ran, YFP-importin-beta, homogeneous, primary screen; cell-free CFP-Ran/YFP-importin-beta FRET ratio; inhibition, % (no concentration beside the values); 300,000 tested, 1.1% active; AID 2216;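 active = most replicates above 15%; inconclusive = exactly half above 15%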;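 also: 0% = DMSO wells and 100% = Ran loaded with GDP instead of GTP; wells of about 40 µL received 100 nL stock; the first replicate is given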
# Beta cell apopt = beta cell apoptosis inhibition. 300,000 tested, 0.8% active. protection from apoptosis, % (concentration not given with the values). INS-1E cytokine-induced death, ATP luminescence, 48 h; percent of positive-control rescue, neutral wells zero. AID 435005;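 active = all replicates at 75% or more, or half of them and the mean; inconclusive = half reach 75% but not the mean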;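 also: 0% = cytokine-treated negative control wells and 100% = positive control rescue; higher means more ATP so stronger rescue from cytokine killing; wells of about 40 µL received 100 nL stock; the first replicate is given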
# T cruzi inh = blocks replication of Trypanosoma cruzi. T. cruzi beta-gal in NIH3T3, luminescence, 90 h. inhibition, % (concentration not given with the values). 300,000 tested, 1.4% active. AID 1885;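 active = mean inhibition across valid replicates above about 55%, limit read from the data; inconclusive = mean below that limit but half or more replicates reach it; inactive = mean below it, under half of replicates reach it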;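 also: signal also drops with host cell toxicity which is not excluded here; 0% = plate median of DMSO wells and 100% = zero luminescence signal; higher percent means less beta-gal luminescence so fewer parasites; stock transfer was 50 nL into about 50 µL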
# Calb FLC = affects C. albicans growth with fluconazole. growth inhibition, % (test concentration not listed). AID 1979. 300,000 tested, 0.57% active. C. albicans CaCi-2 (fluconazole-resistant clinical isolate) + fluconazole, Alamar Blue growth, 48 h;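 active = most replicates above 75%; inconclusive = exactly half above 75%; inactive = most below 75%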;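 also: all wells also contain fluconazole at 8 µg/ml as a sub-toxic cotreatment; 0% = median of DMSO wells and 100% = median of geldanamycin control wells; wells of about 8 µL received 7.5 nL stock; the first replicate is given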
# Vif TR-FRET = HIV-1 Vif–A3G interaction blockers – biochemical, TR-FRET, GST-Vif 1-94, biotin-A3G peptide, dose response retest, primary screen (AID 1117319); TR-FRET GST-Vif / biotin-A3G peptide binding; higher % means a stronger effect; test concentration not given here; strong numbers were not always called active; one-dose inhibition, %; IC50 in µM for titrated hits; 260,000 tested, 0.57% active;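 active = above the screen mean plus three standard deviations and confirmed in dose response; inconclusive = results disagree or hit not tested in dose response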;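 also: Vif residues 1-94 fused to GST binding biotinylated APOBEC3G peptide 110-148; 0% = full assay without inhibitor and 100% = GST in place of GST-Vif; retest series ran down from 100 µM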
# A1 inh = inhibitors of the anti-apoptotic protein A1, read as caspase activation; AID 2462; MEF A1-2A-BIM cells, Caspase-Glo 3/7 luminescence, 3 h; percent of clofoctol response, vehicle zero; caspase activation, % (no concentration beside the values); 330,000 tested, 0.066% active;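 active = over half of replicate activation scores above 10%, or exactly half above 10 with the replicate mean above 10; inconclusive = replicate mean below 10 yet half the replicates above 10; inactive = over half of replicates below 10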;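 also: wells of about 30 µL received 50 nL stock; many hits fall short of the cut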
# rRNA inh HTS OD600 = further read-out of rRNA inh HTS, marked with its call; OD600 change, %; measured here: OD600 growth;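 optical density of the mix in the first replicate; 0 = DMSO median and -100 = no signal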
# rRNA inh HTS RFP = further read-out of rRNA inh HTS, marked with its call; RFP signal change, %; measured here: RFP humanized mutant strains;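 first replicate; 0 = DMSO median and -100 = no signal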
# * hit, by the source's call; u = inconclusive; x = not tested or not shown; & = joins results of further samples.
mol,rRNA inh HTS RFP,AF4-AF9 inh,Beta cell apopt,rRNA inh HTS OD600,RanGTP-Impb inh,Vif TR-FRET,A1 inh,Calb FLC,rRNA inh HTS,T cruzi inh
CC(=O)Nc1ccc(N2C(=O)CC(Sc3nc4ccccc4s3)C2=O)cc1 (centres undefined),1.2,1.2,-3,9,-1.1,0%,-0.5,3,2,6
NC(N)=NNC(=O)c1ccccc1Cl,x,x,2,x,6.2,11%,-0.1,0,x,-7
O=C(c1cc2ccccc2o1)N(Cc1ccco1)Cc1cccs1,-1.3,0.2,x,-48,-1.4,-2%,1.3,-7,-31,6
O=C(NCc1ccncc1)NC1CCCCC1,1.0,-0.3,-5,16,-3.4,-3%,-1.0,-8,11,-14
CCC(C)(C(=O)NC1CCCC1)N(C)C(=O)Cc1c[nH]c2ccccc12 (centres undefined),1.6,1.9,-4,6,-4.8,-1%,-0.8,-6,5,-8
COC(=O)CCCCC1SCC(NC(=O)OC)C1NC(=O)OC (centres undefined),x,x,0,x,5.1,-1%,0.2,6,x,-4
COc1ccccc1CNC(=O)C1CCN(S(C)(=O)=O)CC1,x,x,3,x,0.7,-4%,1.4,-6,x,-3
CN(C)c1ccc(C(=O)n2nnc3ccccc32)cc1,x,x,0,x,-0.1,2%,0.1,u,x,-3
O=C(c1cccc(O)c1)N1CCN(C(=O)C2CC2)CC1,-3.6,0.5,0,13,x,x,0.3,x,3,x
CCc1ccc(-c2nc(CN3CCCC(C(=O)NCCc4ccc(OC)c(OC)c4)C3)c(C)o2)cc1 (centres undefined),x,x,1,x,-2.6,26%&-7%,0.2,3,x,59*
N#CC1(NC(=O)COC(=O)CCCN=C2NS(=O)(=O)c3ccccc32)CCCCC1,2.7,-0.3,-1,-2,-2.1,x,-0.9,4,9,-11
CCOc1ccc(NC(=O)CNc2ccc(C)cc2Cl)cc1,x,x,0,x,3.6,13%,0.1,-8,x,2

# Carrying on.
mol,rRNA inh HTS RFP,AF4-AF9 inh,Beta cell apopt,rRNA inh HTS OD600,RanGTP-Impb inh,Vif TR-FRET,A1 inh,Calb FLC,rRNA inh HTS,T cruzi inh
Cc1csc(NC(=O)c2cccc([N+](=O)[O-])c2C(=O)O)n1,-2.3,-0.3,-3,8,1.3,x,2.0,4,-1,-3
CC(NC(=O)C1CCCN(C(=O)N(C)C)C1)c1ccccc1 (centres undefined),x,x,-5,x,u,12%,0.6,-6,x,-16
O=C(COc1ccc2ccccc2c1Br)NCc1ccccn1,-8.6,-1.3,-8,-59,-1.7,2%,0.8,13,-48,2
O=C(Cn1cc(/C=N/NC(=O)c2ccccc2Br)c2ccccc21)Nc1ccc(F)cc1,1.9,-3.5,1,9,-3.4,x,0.5,-7,10,-3
O=C(CSc1nnnn1-c1ccc(F)cc1)NCc1cccs1,-0.9,-2.4,-3,-3,x,0%,-0.5,-22,-5,x
COc1ccc(COC(=O)C2=C(C)NC(=O)NC2c2ccc(OC)c(OC)c2)cc1 (centres undefined),-3.2,-3.4,3,-10,-0.3,7%,-0.5,-7,-16,-7
Cc1ccc(C)c(N2C(=O)C3C4C=CC(CC4)C3C2=O)c1 (centres undefined),-2.3,0.5,x,-4,0.1,0%,-0.5,0,-2,-7
Cc1ccc2oc(=O)n(CC(=O)OCCC(C)C)c2c1,4.3*,10,-3,-8.7*,-3.4,2%,0.3,4,-18*,-17
CCCCNC(=O)C1c2cc(OC)c(OC)cc2C(=O)N(C)C1c1ccc(OC)cc1 (centres undefined),x,x,-1,x,3.4,0%,-0.3,3,x,0
CN(C)c1nc(OCC(=O)NC(C)(C)C)nc(N(C)C)n1,x,x,0,x,-2.1,-5%,-0.2,3,x,4
Cc1cc(C)nc(Sc2nc(C)nc3c2oc2ccccc23)n1,x,x,-19,x,1.9,3%,-0.1,-8,x,-21
Cn1c(CNC(=O)c2ccccc2F)nnc1SCC(=O)Nc1nncs1,-1.0,-1.0,-4,-6,2.9,x,1.1,-5,-4,3

# Other entries
mol,rRNA inh HTS RFP,AF4-AF9 inh,Beta cell apopt,rRNA inh HTS OD600,RanGTP-Impb inh,Vif TR-FRET,A1 inh,Calb FLC,rRNA inh HTS,T cruzi inh
Cc1cccc(NC(=O)C2CCCN(C(=O)Nc3ccccc3)C2)c1C (centres undefined),x,x,4,x,-2.0,6%,-0.2,12,x,-6
COc1cccc(C(=O)N(Cc2ccco2)Cc2cc3cccc(C)c3[nH]c2=O)c1,x,x,2,x,2.7,2%,-0.2,33,x,-5
NS(=O)(=O)c1ccc(NC(=S)NCc2cccs2)cc1,3.3,-6.9,0,2,3.0,4%,0.4,1,5,-12
O=C1C2C3C=CC(C2C(=O)N1CCO)C1C(=O)N(CCO)C(=O)C31 (centres undefined),3.7,-0.7,-5,11,0.7,1%,0.1,-3,20,-13
CC(=O)NCC(=O)N(c1ccccc1)C1(C(=O)NC2CCCCC2)CCCCC1,x,x,x,x,-3.9,11%,-0.3,-1,x,1
COc1cc(/C=N/n2c(COc3ccccc3)n[nH]c2=S)cc(OC)c1OC(C)=O,-2.8,-1.1,4,8,u,-7%,-0.4,-1,3,-2
CC[C@H](C)[C@H](NC(N)=O)C(=O)Nc1ccccc1F,-1.0,-4.4,-2,7,-1.6,-6%,0.6,u,0,3
Cc1cc(OCC(=O)NCc2nc(-c3ccccc3)no2)c(C)cc1Br,x,x,1,x,-3.7,-9%,0.5,-1,x,-3
CCOC(=O)CNC(=O)c1cnn2cccnc12,x,x,1,x,-3.8,-5%,0.2,7,x,-4
COc1ccc(CNC(=O)CN(C(=O)c2snc(C(N)=O)c2N)c2ccc(OC)c(OC)c2)cc1,1.3,1.2,-12,3,-1.2,x,0.4,-5,-2,9
COc1ccc2c(COC(=O)CNC(=O)C34CC5CC(CC(C5)C3)C4)cc(=O)oc2c1,-4.8,5.7,-11,-32,2.4,-6%,0.0,-1,-32,-2
CN(C(=O)c1ccc2c(=O)n3c(nc2c1)CCCCC3)c1ccccc1,x,x,5,x,4.8,14%,0.4,-12,x,-4

# Next part (four carried over from the part before).
mol,rRNA inh HTS RFP,AF4-AF9 inh,Beta cell apopt,rRNA inh HTS OD600,RanGTP-Impb inh,Vif TR-FRET,A1 inh,Calb FLC,rRNA inh HTS,T cruzi inh
CCOC(=O)CNC(=O)c1cnn2cccnc12,x,x,1,x,-3.8,-5%,0.2,7,x,-4
COc1ccc(CNC(=O)CN(C(=O)c2snc(C(N)=O)c2N)c2ccc(OC)c(OC)c2)cc1,1.3,1.2,-12,3,-1.2,x,0.4,-5,-2,9
COc1ccc2c(COC(=O)CNC(=O)C34CC5CC(CC(C5)C3)C4)cc(=O)oc2c1,-4.8,5.7,-11,-32,2.4,-6%,0.0,-1,-32,-2
CN(C(=O)c1ccc2c(=O)n3c(nc2c1)CCCCC3)c1ccccc1,x,x,5,x,4.8,14%,0.4,-12,x,-4
CC(C(=O)NCCS(=O)(=O)c1ccc(Cl)cc1)S(=O)(=O)c1ccccc1 (centres undefined),-2.1,1.2,3,6,-4.6,-5%,1.3,32,10,7
COc1ccccc1-n1c(SCC(=O)N2CCCCC2)nnc1-c1ccccc1O,x,x,-5,x,1.3,4%,-0.2,14,x,4
O=C(O)CCCC(=O)NCCCCc1ccccc1,x,x,-4,x,2.3,-7%,-0.2,-19,x,-4
COc1cc(/C=N/OCC(=O)Nc2cc(C)on2)ccc1OCc1ccccc1,-1.8,u,-1,-7,0.8,x,-0.3,-5,9,-1
CCC(C)(C)NC(=O)C(c1cccn1C)N(C(=O)Cn1nnc2ccccc21)c1ccc(F)cc1 (centres undefined),x,x,5,x,0.9,-1%&-4%,1.0,4,x,27
CC(C)(C)C(=O)Nc1ccc(N2CCN(S(C)(=O)=O)CC2)cc1,0.7,1.0,8,11,0.9,x,0.5,7,17,-9
COC(=O)CSc1nc(C(C)C)nc2ccccc12,x,x,-11,x,-0.7,8%,0.0,-7,x,-8
O=C(Cn1c(-c2ccc(Cl)cc2)noc1=O)N1CCN(c2ccccc2F)CC1,x,x,28,x,-1.0,-2%,0.2,9,x,23
COc1ccccc1Nc1nc(N2CCCC2)nc(N2CCOCC2)n1,1.2,2.6,-9,5,-1.4,x,-0.4,3,7,-5
Cc1ccc(S(=O)(=O)N2CCN(C(=O)C(C)Cn3cncn3)CC2)cc1 (centres undefined),1.4,-0.8,3,15,1.6,x,0.1,-9,13,-4
O=C1c2ccccc2NC(c2ccccc2Br)N1CCCN1CCOCC1 (centres undefined),x,x,-6,x,1.2,16%,0.9,-3,x,-3
Cc1cccc(NC(=S)NCc2ccncc2)c1C,-3.9,-0.5,-3,6,-3.3,x,0.0,-8,9,-13

# Already shown: an excerpt of the list.
mol,rRNA inh HTS RFP,AF4-AF9 inh,Beta cell apopt,rRNA inh HTS OD600,RanGTP-Impb inh,Vif TR-FRET,A1 inh,Calb FLC,rRNA inh HTS,T cruzi inh
CC(C(=O)NCCS(=O)(=O)c1ccc(Cl)cc1)S(=O)(=O)c1ccccc1 (centres undefined),-2.1,1.2,3,6,-4.6,-5%,1.3,32,10,7
COc1ccccc1-n1c(SCC(=O)N2CCCCC2)nnc1-c1ccccc1O,x,x,-5,x,1.3,4%,-0.2,14,x,4
O=C(O)CCCC(=O)NCCCCc1ccccc1,x,x,-4,x,2.3,-7%,-0.2,-19,x,-4
COc1cc(/C=N/OCC(=O)Nc2cc(C)on2)ccc1OCc1ccccc1,-1.8,u,-1,-7,0.8,x,-0.3,-5,9,-1
CCC(C)(C)NC(=O)C(c1cccn1C)N(C(=O)Cn1nnc2ccccc21)c1ccc(F)cc1 (centres undefined),x,x,5,x,0.9,-1%&-4%,1.0,4,x,27
CC(C)(C)C(=O)Nc1ccc(N2CCN(S(C)(=O)=O)CC2)cc1,0.7,1.0,8,11,0.9,x,0.5,7,17,-9

# Continuation.
mol,rRNA inh HTS RFP,AF4-AF9 inh,Beta cell apopt,rRNA inh HTS OD600,RanGTP-Impb inh,Vif TR-FRET,A1 inh,Calb FLC,rRNA inh HTS,T cruzi inh
CC(C(=O)OCC(=O)c1ccc(F)cc1)N1C(=O)C2C3C=CC(C3)C2C1=O (centres undefined),-0.9,2.7,x,3,5.9,x,-0.4,-1,4,-3
Cc1sc(NC(=O)COc2ccccc2)c(C#N)c1C,3.0,-5.5,5,1,1.4,-37%,-1.3,-1,4,11
CC(Oc1ccccc1Cl)C(=O)N(Cc1cccs1)C1CCS(=O)(=O)C1 (centres undefined),-5.4,4.1,-7,-6,-1.0,x,x,-5,3,2
Cc1nn(CC(=O)NCCC2=CCCCC2)c(C)c1[N+](=O)[O-],-0.4,-3.0,-12,2,-0.8,0%,-0.1,-8,-2,-8

# Only part of the results is shown; rates above refer to the full screens.
